T cruzi repl: blocks replication of Trypanosoma cruzi; T. cruzi beta-gal in NIH3T3, luminescence, 90 h; inhibition, % (concentration not given with the values); 300,000 tested, 1.4% active; AID 1885;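 active = mean inhibition across valid replicates above about 55%, limit read from the data; inconclusive = mean below that limit but half or more replicates reach it; inactive = mean below it, under half of replicates reach it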;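 note: signal also drops with host cell toxicity which is not excluded here; 0% = plate median of DMSO wells and 100% = zero luminescence signal; higher percent means less beta-gal luminescence so fewer parasites; stock transfer was 50 nL into about 50 µL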
Beta apoptosis: blocks beta cell apoptosis. INS-1E cytokine-induced death, ATP luminescence, 48 h; percent of positive-control rescue, neutral wells zero. 300,000 tested, 0.8% active. protection from apoptosis, % (test concentration not listed);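 active = all replicates at 75% or more, or half of them and the mean; inconclusive = half reach 75% but not the mean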;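 note: 0% = cytokine-treated negative control wells and 100% = positive control rescue; higher means more ATP so stronger rescue from cytokine killing; wells of about 40 µL received 100 nL stock; the first replicate is given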
B2AR ag: human beta-2 adrenergic receptor agonism by FAP. P07550. Am2.2-beta2AR cells, FAP receptor internalization, flow cytometry; reference of the scale not given here. response, % (no concentration beside the values). 340,000 tested, 0.43% active. AID 504454;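 active = response above a set limit, near 3 SD of response in nonfluorescent compounds, cut at about 42% in these data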;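 note: stock transfer was 100 nL into about 11 µL; a reference agonist was the positive control; negative values mostly stem from fluorescent compounds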
Target sequence (P07550 whole entry, looked up): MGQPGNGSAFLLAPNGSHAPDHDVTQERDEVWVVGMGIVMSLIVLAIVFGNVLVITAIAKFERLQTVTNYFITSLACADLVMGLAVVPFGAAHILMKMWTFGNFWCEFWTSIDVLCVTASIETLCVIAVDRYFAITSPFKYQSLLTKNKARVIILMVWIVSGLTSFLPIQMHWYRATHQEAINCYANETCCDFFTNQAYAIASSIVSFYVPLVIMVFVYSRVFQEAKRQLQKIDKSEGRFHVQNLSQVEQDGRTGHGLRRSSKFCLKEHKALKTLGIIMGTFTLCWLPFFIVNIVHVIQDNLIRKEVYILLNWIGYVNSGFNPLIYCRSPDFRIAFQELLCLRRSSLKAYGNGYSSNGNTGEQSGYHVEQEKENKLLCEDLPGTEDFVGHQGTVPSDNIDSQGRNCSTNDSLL
LANA-H2B inh: blocks KSHV LANA binding to histone H2A/H2B; cell-free LANA-H2A/H2B peptide, fluorescence polarization; inhibition, % (test concentration not listed); 320,000 tested, 0.6% active; in the data active = inhibition mostly above about 10%, no sharp cut-off; inactive = mostly below about 6.7%;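 note: stock transfer was 7.5 nL into about 10 µL; 0% = median of vehicle wells and 100% = median of positive control wells; one replicate is shown; the record names a cut of 25% in any replicate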
rRNA inh HTS: inhibitors of bacterial rRNA selective over humanized ribosomes; E. coli WT GFP vs humanized-ribosome RFP mutants, fluorescence, 24 h; hits give low values; DMSO median 0, no signal -100; GFP signal change (wild-type ribosome), % (test concentration not listed); 350,000 tested, 1.6% active; AID 720706;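 active = significant combined selectivity score with lowered wild-type GFP, culture density cut under 30%, mutant RFP and density less affected; inactive = any of these conditions unmet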; note: one replicate is shown; some compounds called inactive have numbers as strong as hits
A1 inh: inhibitors of the anti-apoptotic protein A1, read as caspase activation; MEF A1-2A-BIM cells, Caspase-Glo 3/7 luminescence, 3 h; percent of clofoctol response, vehicle zero; caspase activation, % (test concentration not listed); 330,000 tested, 0.066% active; AID 2462;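 active = over half of replicate activation scores above 10%, or exactly half above 10 with the replicate mean above 10; inconclusive = replicate mean below 10 yet half the replicates above 10; inactive = over half of replicates below 10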;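 note: wells of about 30 µL received 50 nL stock; many hits fall short of the cut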
Calb FLC: C. albicans growth modulation with fluconazole; C. albicans CaCi-2 (fluconazole-resistant clinical isolate) + fluconazole, Alamar Blue growth, 48 h; growth inhibition, % (concentration not given with the values); 300,000 tested, 0.57% active;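 active = most replicates above 75%; inconclusive = exactly half above 75%; inactive = most below 75%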;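 note: all wells also contain fluconazole at 8 µg/ml as a sub-toxic cotreatment; 0% = median of DMSO wells and 100% = median of geldanamycin control wells; wells of about 8 µL received 7.5 nL stock; the first replicate is given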
ALR H2O2 inh: inhibitors of human sulfhydryl oxidase ALR | P55789 | purified ALR, DTT oxidation, H2O2 HRP-luminol luminescence | inhibition, % (test concentration not listed) | 290,000 tested, 3.8% active | AID 485317;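 active = mean and each replicate at 75% or more; inconclusive = only one of the two met; inactive = neither met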;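 note: stock transfer was 7.5 nL into about 7.5 µL; 0% = neutral wells and 100% = wells with inactivated enzyme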
Target sequence (P55789 whole entry, looked up): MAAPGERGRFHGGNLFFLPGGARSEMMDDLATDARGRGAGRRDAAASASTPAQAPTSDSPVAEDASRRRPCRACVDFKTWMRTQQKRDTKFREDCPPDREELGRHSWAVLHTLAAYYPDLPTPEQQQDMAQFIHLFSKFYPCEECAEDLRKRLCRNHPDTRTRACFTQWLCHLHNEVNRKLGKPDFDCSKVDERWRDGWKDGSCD
rRNA inh HTS OD600: recorded beside rRNA inh HTS, whose call it bears; OD600 change, %; measured here: OD600 growth;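 optical density of the mix in the first replicate; 0 = DMSO median and -100 = no signal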
rRNA inh HTS RFP: further read-out of rRNA inh HTS, marked with its call; RFP signal change, %; measured here: RFP humanized mutant strains;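 first replicate; 0 = DMSO median and -100 = no signal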
An asterisk follows results filed as active; ? = inconclusive; / = no result given; & = joins results of further samples. A portion of the library (hit frequency here may not be typical).

SMILES	T cruzi repl	Beta apoptosis	B2AR ag	LANA-H2B inh	rRNA inh HTS	rRNA inh HTS OD600	rRNA inh HTS RFP	A1 inh	Calb FLC	ALR H2O2 inh
CCOC(=O)c1c(-c2ccc(Cl)cc2)csc1NC(=O)CNCc1ccco1	7	2	-6	2.2	6	1	0.5	0.4	2	-6
Cc1cc(S(=O)(=O)N2CCCC(N3CCOCC3)C2)c(C)cc1Cl (stereo not drawn)	-2	-7	2	1.7	-11	-18	-3.4	-0.5	7	-2
CC(C)=CCc1c(O)cc2oc3c(CC=C(C)C)c(O)c(O)c(CC=C(C)C)c3c(=O)c2c1O	40	/	21	1.7	/	/	/	0.0	0	-14
CCOC(=O)C(C)S(=O)(=O)c1ccc(C(F)(F)F)cn1 (stereo not drawn)	2	-2	-3	2.9	/	/	/	-0.5	4	-3
CC(OC(=O)Cc1coc2cc3c(cc12)CCC3)C(=O)NC(N)=O (stereo not drawn)	-10	-6	7	-0.4	8	7	0.2	0.7	17	-5
COc1ccccc1N1CCN(C(=O)CSc2nnc(-c3ccoc3C)o2)CC1	-22	-5	3	1.1	/	/	/	?	4	15
O=C(c1cnn(-c2nc3ccccc3s2)c1)c1ccccc1O	-4	4	-7	1.0	/	/	/	2.0	-2	-2
O=C1CCC(C(=O)N2CCSCC2)CN1CCc1cccc(F)c1 (stereo not drawn)	12	0	28	-0.4	1	-5	-4.3	1.1	-9	-6
O=C(c1cnn2c(C(F)(F)F)cc(-c3ccc(F)cc3)nc12)N1CCc2ccccc2C1	34	/	0	-2.9	-1	-15	-4.4	0.4	-6	-10
Cc1cccc(NC(=O)c2ccc(OC3CSC3)cc2)c1	7	-7	6	-2.7	/	/	/	-6.2	3	-5
COc1cc(C(=O)NNC(=O)CN2C(=O)NC(C)(c3ccc(C)cc3)C2=O)cc(OC)c1OC (stereo not drawn)	/	-2	-3	4.4	4	12	-0.6	1.4	/	5
Cc1ccc(C(=O)Nc2cccc(Oc3ccccc3)c2)o1	11	0	-9	5.5	/	/	/	0.8	-7	-13
O=C(COc1ccc2ccccc2c1)Nc1ccc(S(=O)(=O)N2CCCCCC2)cc1	11	6	5	-1.4	/	/	/	1.7	5	-12
CCOc1ccc(C(=O)N2CCc3ccccc32)cc1OCC	2	20	-1	-2.3	0	-6	4.8	0.8	-19	-6
O=C(NCC1CCCO1)c1cc2c([nH]c3ccccc32)c(-c2ccc(F)cc2)n1 (stereo not drawn)	51	/	-5	4.5	-4	-40	-21	-0.3	23	97*
COc1cc(Cl)ccc1OCc1cc(C(=O)NCc2cc(C(C)C)no2)no1	-3	4	2	-1.4	-1	-4	-2.8	-3.8	-6	-8
COc1ccccc1-n1c(=O)[nH]c2c(C(N)=O)nc(CC(C)C)nc21	7	-2	6	-0.1	3	1	1.5	0.1	-1	-4
O=C(CN1C(=O)NC2(CCCCC2)C1=O)NCC(=O)Nc1ccc(F)c(F)c1	-12	-2	1	1.7	5	2	-0.2	0.8	-5	-8
COc1cc2c(cc1NC(=O)c1ccco1)CCCC2	10	-3	-1	2.3	-32*	-25*	-5.2*	0.6	72	10
COc1ccc(-c2c(-c3cc(OC)cc(OC)c3)sc3ccc(OC)cc23)cc1	/	-1	-11	2.0	8	6	-9.4	0.8	/	0
CCN1C(Nc2ccccc2)=NC[C@@H]1Cc1ccccc1	-6	1	1	-2.0	11	13	19	0.5	-5	2
Cc1[nH]c2ccccc2c1/C=N/n1cnnc1	-4	-1	1	-1.0	/	/	/	-0.3	6	-7
O=C1c2ccccc2OCOc2ccccc21	-22	-3	-6	6.5	/	/	/	0.1	0	-4
O=[N+]([O-])c1ccc2nc(-c3ccccc3[N+](=O)[O-])[nH]c2c1	-2	18	-2	-6.0	-28*	-15*	-5.8*	-1.1	33	-1
COc1ccc(NC(C)=O)cc1S(=O)(=O)N1CCN(Cc2cccs2)CC1	/	-5	-4	0.0	6	1	3.0	0.9	/	-4
CCCCOc1ccc(CSc2nc(C)[nH]c2[N+](=O)[O-])cc1[N+](=O)[O-]	-12	-11	8	-0.9	-14	-15	2.4	0.0	40	99*
O=C(CC(NC(=O)c1ccccc1)c1ccccc1)Nc1cccc2ccccc12 (stereo not drawn)	-10	/	2	-3.2	/	/	/	1.5	-3	2
Cc1ccc(OCC(=O)N(C)CC(=O)N(CC(C)C)c2c(N)n(CC(C)C)c(=O)[nH]c2=O)c(C)c1	0	/	5	-2.7	2	-11	0.4	0.1	-2	/
C=CC[N+](C)(C)CC(=O)OCc1ccccc1	-4	-6	-3	1.6	20	7	1.1	0.6	2	-16
Cc1cccc(NC(=O)CS(=O)(=O)c2cn(C)c3ccccc23)c1C	0	0	-1	2.1	/	/	/	-0.6	10	0

A draw from above in order of SMILES length, descending:
SMILES	T cruzi repl	Beta apoptosis	B2AR ag	LANA-H2B inh	rRNA inh HTS	rRNA inh HTS OD600	rRNA inh HTS RFP	A1 inh	Calb FLC	ALR H2O2 inh
O=C(CC(NC(=O)c1ccccc1)c1ccccc1)Nc1cccc2ccccc12 (stereo not drawn)	-10	/	2	-3.2	/	/	/	1.5	-3	2
CCOC(=O)C(C)S(=O)(=O)c1ccc(C(F)(F)F)cn1 (stereo not drawn)	2	-2	-3	2.9	/	/	/	-0.5	4	-3
O=C1CCC(C(=O)N2CCSCC2)CN1CCc1cccc(F)c1 (stereo not drawn)	12	0	28	-0.4	1	-5	-4.3	1.1	-9	-6

(next part)
SMILES	T cruzi repl	Beta apoptosis	B2AR ag	LANA-H2B inh	rRNA inh HTS	rRNA inh HTS OD600	rRNA inh HTS RFP	A1 inh	Calb FLC	ALR H2O2 inh
O=C(OCc1ccccn1)c1ccc(COc2ccc3ccccc3c2)o1	-9	0	10	-8.8	-26*	-21*	0.3*	-6.4	3	2
Cn1c(C(O)C(O)c2ccccc2)nc2ccccc21 (stereo not drawn)	-50	-2	-4	0.4	12	12	0.3	-0.2	-27	-1
CNC(=O)NC(=O)C(C)OC(=O)c1oc2ccccc2c1CSc1ccc(Cl)cc1 (stereo not drawn)	15	-5	3	-2.2	-4	-4	-0.9	2.6	1	-3
CCN(CC)S(=O)(=O)c1ccc(N2CCCC2)c(NC(=O)c2ccc([N+](=O)[O-])o2)c1	/	10	5	0.0	-27*	5.0*	9.9*	0.5	/	-37
O=C(Oc1c(CN2CCOCC2)cc(Cl)c2cccnc12)c1cccs1	30	122*	-3	-7.0	-39	-68	-21	0.3	101*	/
Cc1cc(C)n(-c2nc(NCCCN(C)C)c3c4c(sc3n2)COC(C)(C)C4)n1	7	-2	-6	2.8	-7	-5	5.3	0.1	-32	-4
NC(=NCc1ccccc1)c1cccc([N+](=O)[O-])c1	4	/	3	4.1	10	13	0.9	-0.5	-2	-7
O=S(=O)(c1ccc(C2=CSC3=NCCN23)cc1)N1CCOCC1	5	-10	-23	0.2	/	/	/	0.4	3	36
COCCN(C(=O)c1ccc2ccccc2c1)c1c(N)n(Cc2ccccc2)c(=O)[nH]c1=O	-7	/	-7	0.4	1	0	-0.7	1.0	-27	7
CCOC(=O)c1ccc(Cl)c(NC(=O)c2cccnc2)c1	-4	4	/	-2.5	/	/	/	0.7	15	0
O=C(NCc1ccc2c(c1)OCO2)C1CCN(S(=O)(=O)c2cccc3nsnc23)CC1	-3	/	1	0.0	/	/	/	-0.3	-2	-6
O=C1OCC(CO)(CO)N=C1NNc1ccccc1Cl	-5	0	3	-1.4	18	2	2.8	0.1	-25	99*
COc1ccc(NC(=O)Nc2ccc3c(c2)CC(=O)N([C@H](C)CO)C[C@H](C)[C@H](CN(C)Cc2ccc(C(=O)O)cc2)O3)cc1	/	8	5	-11	1&6	4&15	-1.9&11	1.4	/	-1
N#Cc1ccc(Oc2nc(C#N)cc(-c3ccccc3)n2)cc1	8	12	14	0.1	18	14	1.0	-0.9	3	-3
COC(=O)c1ccc(NC(=S)Nc2ccc3ccccc3c2)cc1	3	3	1	3.1	/	/	/	0.6	-4	-5
CN(C)c1ccc(C(=S)N2CCCCC2)cc1Br	13	-10	5	-0.1	-18	-18	-3.2	-0.1	-5	2
COC(=O)CN(CCc1ccccc1)S(=O)(=O)c1ccc(OC)c(OC)c1	1	-4	-14	-0.4	/	/	/	-0.1	3	-1
O=C(NC1CCS(=O)(=O)C1)c1ccccc1C(=O)c1ccccc1 (stereo not drawn)	-7	/	4	-3.9	/	/	/	0.2	42	-4
Cc1cccnc1NC(=O)c1ccc2c(c1)OCO2	-8	1	-5	2.3	5	6	-1.2	0.5	-5	2
Cc1cc(NC(=O)Nc2ccccc2)n(C(C)(C)C)n1	5	-4	3	2.0	17	19	-0.8	0.9	-2	-5
COCCn1c(SCC(=O)N2CC(C)OC(C)C2)nc2c([nH]c3ccccc32)c1=O (stereo not drawn)	-21	-4	2	2.9	2	6	-3.2	0.2	4	-11
COc1ccc(C(=O)OCC(=O)NC(=O)Nc2ccccc2F)c(OC)c1	/	3	11	-4.0	15	19	4.0	-1.4	/	0
COc1ccccc1C(=O)NCCC(=O)NCc1cccs1	-5	2	5	-3.0	8	5	-0.8	-0.5	-4	-2
NC(=O)COC(=O)c1cccc(S(=O)(=O)N2CCN(c3ccc(F)cc3)CC2)c1	-1	-4	8	3.3	6	7	3.6	-0.5	-12	-1
Cc1sc2nc(N)sc2c1C	/	7	8	-3.0	/	/	/	-1.1	/	49
O=C(O[C@H]1[C@H](Oc2ccccc2COC(=O)C2(O)C=CCCC2=O)O[C@H](CO)[C@@H](O)[C@@H]1O)c1ccccc1 (stereo partly drawn)	-39	0	/	-1.7	/	/	/	0.7	/	4
Cc1[nH]c(=O)[nH]c(=O)c1S(=O)(=O)Nc1ccc(F)cc1F	-1	-4	-5	-2.2	-2	5	17	0.7	15	-5
Cc1ccccc1S(=O)(=O)NCc1cccnc1	/	0	-6	1.4	/	/	/	-0.2	/	/
CC(NC(=O)C(C)N1CCN(S(=O)(=O)c2ccccc2)CC1)c1ccccc1 (stereo not drawn)	/	-6	-2	2.9	-1	4	-0.9	0.5	/	-5
COc1ccc(CNC(=O)c2n[nH]c3ccccc23)cc1OC	-13	-21	-1	1.2	2	4	-0.8	0.1	34	1
Cc1[nH]cnc1CSCc1ccc(Cl)cc1	-11	-3	-1	-0.5	-4	-11	-0.9	0.9	1	29
CC1Cc2ccccc2N1CC(=O)NC(=O)NCc1ccco1 (stereo not drawn)	-5	-5	-1	3.2	/	/	/	0.4	-2	-34
Cc1ccc(C(=O)OCc2cc(=O)n3ccsc3n2)s1	/	-6	-4	-1.2	7	4	1.0	-0.4	/	/
CC/C=C(/NC(C)=O)c1ccccc1	/	-2	-2	-1.2	6	9	13	1.4	/	-6
CC(=O)c1ccc(Oc2cc(-c3ccccc3)nc(-c3ccccc3)n2)cc1	0	14	8	-0.7	9	4	7.1	1.1	-7	-5
Cc1ccc2c(c1)C(c1ccncc1)=NNC(c1cccnc1)=N2	8	-3	-14	-21	/	/	/	-0.2	?	6
N#C/C(=C\C=C\c1ccccc1)C(=O)NCc1ccco1	-16	-1	5	-3.4	-7	-2	0.1	1.0	6	-24
